# rRNA inh HTS = selective bacterial rRNA inhibition in E. coli; E. coli WT GFP vs humanized-ribosome RFP mutants, fluorescence, 24 h; hits give low values; DMSO median 0, no signal -100; GFP signal change (wild-type ribosome), % (no concentration beside the values); 1.6% of 350,000 active;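 active = significant combined selectivity score with lowered wild-type GFP, culture density cut under 30%, mutant RFP and density less affected; inactive = any of these conditions unmet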; note: one replicate is shown; some compounds called inactive have numbers as strong as hits
# ALR inh = blocks human ALR sulfhydryl oxidase activity | purified ALR, DTT oxidation, H2O2 HRP-luminol luminescence | AID 485317 | 3.8% of 290,000 active | P55789 | inhibition, % (test concentration not listed);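 active = mean and each replicate at 75% or more; inconclusive = only one of the two met; inactive = neither met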;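 note: stock transfer was 7.5 nL into about 7.5 µL; 0% = neutral wells and 100% = wells with inactivated enzyme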
# Target sequence (P55789 whole entry, looked up): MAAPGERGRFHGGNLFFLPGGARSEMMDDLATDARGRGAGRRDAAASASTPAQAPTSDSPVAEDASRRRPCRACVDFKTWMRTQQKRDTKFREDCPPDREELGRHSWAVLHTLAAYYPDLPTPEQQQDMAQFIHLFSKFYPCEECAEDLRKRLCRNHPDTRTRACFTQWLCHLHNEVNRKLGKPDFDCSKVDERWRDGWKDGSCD
# Vif A3G = inhibitors of Vif binding to APOBEC3G peptide, primary screen, biochemical, TR-FRET, GST-Vif 1-94, biotin-A3G peptide, dose response retest (AID 1117319); TR-FRET GST-Vif / biotin-A3G peptide binding; higher % means a stronger effect; test concentration not given here; strong numbers were not always called active; 0.57% of 260,000 active; inhibition, %, or IC50 in µM where a hit was titrated;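 active = above the screen mean plus three standard deviations and confirmed in dose response; inconclusive = results disagree or hit not tested in dose response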;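 note: Vif residues 1-94 fused to GST binding biotinylated APOBEC3G peptide 110-148; 0% = full assay without inhibitor and 100% = GST in place of GST-Vif; retest series ran down from 100 µM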
# E coli growth = inhibitors of Escherichia coli growth; OD600, 23 h; hits give low values; OD600 absorbance (no concentration beside the values); 0.21% of 330,000 active; AID 1053175;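 active = OD600 absorbance below the run mean of sample wells minus 3.6 SD, in any replicate, cut at about 0.56 in these data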;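 note: stock transfer was 300 nL into about 60 µL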
# HNF4A DNA FP = change in binding of human HNF4 alpha to DNA | 0.3% of 360,000 active | P41235 | activity change, % at 10 µM | HNF4a-FITC DNA binding, fluorescence polarization, 1 h; in the data active = activity change above about 30%, passing the limit was not always enough;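 note: controls were the assay level and a saturating level of protein; the project sought stronger binding though the title names inhibitors; some compounds called inactive have numbers as strong as hits; positive values seem to mean higher polarization but the record does not say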
# Target sequence (P41235 whole entry, looked up): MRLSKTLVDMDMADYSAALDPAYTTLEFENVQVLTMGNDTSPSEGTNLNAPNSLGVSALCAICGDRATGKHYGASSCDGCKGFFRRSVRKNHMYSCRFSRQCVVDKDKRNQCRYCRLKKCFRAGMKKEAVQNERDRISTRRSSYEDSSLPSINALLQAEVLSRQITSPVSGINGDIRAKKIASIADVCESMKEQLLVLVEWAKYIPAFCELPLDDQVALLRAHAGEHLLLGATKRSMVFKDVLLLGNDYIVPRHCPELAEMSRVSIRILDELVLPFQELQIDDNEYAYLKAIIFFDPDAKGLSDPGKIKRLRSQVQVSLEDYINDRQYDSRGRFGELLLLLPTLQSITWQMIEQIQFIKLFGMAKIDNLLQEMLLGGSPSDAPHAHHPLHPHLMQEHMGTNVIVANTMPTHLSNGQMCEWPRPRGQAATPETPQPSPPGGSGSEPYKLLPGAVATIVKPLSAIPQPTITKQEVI
# MLL AF4-AF9 inh = blocks AF4 peptide binding to human AF9; P42568; AlphaScreen, biotin-AF4 peptide binding to FLAG-AF9; inhibition, % at 10 µM; 0.47% of 350,000 active;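 active = every replicate reaching a set inhibition limit, whatever the replicate mean, cut at about 25% in these data; inconclusive = mean inhibition reaches that limit but some replicates miss it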;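 note: 0% = plate neutral control median and 100% = total signal loss; the record names both 10 and 1 µM as test concentration; the first replicate is given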
# FGF22 binding = binders of recombinant human FGF22 by thermal shift. SYPRO orange fluorescence; percent of sucrose octasulfate shift, DMSO zero. calls only at 9.99 µM. 1.5% of 340,000 active. AID 651658;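 active = melting point raised past a set limit in the mean and every replicate; inconclusive = no clear call; three in four hits are not shown here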
# Target sequence (Q9HCT0 whole entry, looked up): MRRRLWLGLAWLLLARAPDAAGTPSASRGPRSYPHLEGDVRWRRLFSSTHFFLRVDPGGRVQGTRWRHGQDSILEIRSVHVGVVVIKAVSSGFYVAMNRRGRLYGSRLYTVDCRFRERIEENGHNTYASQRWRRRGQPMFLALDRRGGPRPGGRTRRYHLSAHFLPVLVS
# rRNA inh HTS OD600 = further read-out of rRNA inh HTS, marked with its call; OD600 change, %; measured here: OD600 growth;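 optical density of the mix in the first replicate; 0 = DMSO median and -100 = no signal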
# rRNA inh HTS RFP = recorded beside rRNA inh HTS, whose call it bears; RFP signal change, %; measured here: RFP humanized mutant strains;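 first replicate; 0 = DMSO median and -100 = no signal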
# The depositor's hits bear a star; i = inactive; ? = inconclusive; · = not tested or not shown; & = joins results of further samples.
# Results follow in this order: rRNA inh HTS, rRNA inh HTS OD600, rRNA inh HTS RFP, ALR inh, Vif A3G, E coli growth, HNF4A DNA FP, MLL AF4-AF9 inh, FGF22 binding
CC(C)(C)c1[nH]nc2c1C(c1ccccc1OC(=O)N1CCOCC1)C(C#N)=C(N)O2 (stereo not drawn)
→ ·, ·, ·, -5, ?, 0.74, -1.0, ·, ·
COc1cccc(NC(=O)N(C)C[C@H]2Oc3ncc(C#Cc4ccccc4)cc3C(=O)N([C@H](C)CO)C[C@H]2C)c1
→ -7, 10, 3.7, ·, ·, ·, ·, -0.6, i
C[C@H]1CCC[C@@]2(O[C@@H](CCO)C[C@H](O)[C@H]2O)O1
→ 4, 11, 3.9, -4, ·, ·, -4.7, -1.8, i
CC(C)CN1CCN(Cc2cccn2-c2ccccn2)CC1CCO (stereo not drawn)
→ 16, 5, -2.8, ·, ?, 0.64, 1.8, -1.9, i
CC(=O)c1ccc2noc(-c3cccc(F)c3)c2c1
→ 1, 7, -0.5, ·, 3%, 0.64, 0.5, 2.2, i
C[C@H](CO)N1C[C@H](C)[C@@H](CN(C)Cc2ccc(Cl)c(Cl)c2)Oc2ccc(NS(=O)(=O)c3ccccc3)cc2C1=O
→ -4, -28, 12, ·, ·, ·, ·, 1.7, i
O=C(Nc1cccc2ccccc12)NC1Cc2ccccc2C1
→ 11, -1, 2.4, ·, 1%, 0.72, 0.1, -4.3, i
CCOC(=O)C1C(=O)OC(C)(C)C1C(C)C(=O)c1ccc(C)cc1 (stereo not drawn)
→ ·, ·, ·, 7, 22%, 0.7, -2.9, -7.4, ·
CC(C)c1ccc(OCC(=O)Nc2cccc3c2CCCC3)cc1
→ ·, ·, ·, 5, -3%, 0.74, 2.0, ·, ·
COc1ccc(C(=O)C2CCCN(C(=O)c3cc4nc(C)cc(C)n4n3)C2)cc1F (stereo not drawn)
→ 3, -2, -0.1, 0, 9%, 0.72, 1.1, -1.4, ·
Cc1cccc(NC(=O)CSCC(=O)Nc2ccc(N3CCOCC3)cc2N2CCOCC2)c1
→ 7, 3, -7.6, ·, ·, 0.65, 3.4, 3.8, i
C[C@@H]1CN([C@H](C)CO)C(=O)c2cc(NC(=O)CCCN(C)C)ccc2O[C@@H](C)CCCCO[C@@H]1CN(C)Cc1ccc2c(c1)OCO2
→ 0, -1, -1.4, ·, ·, ·, ·, 5.3, i
Cc1cc(O)ccc1Nc1cc(-c2cccc(N)c2)ncn1
→ 8, 4, -1.2, ·, ·, ·, 1.3, 2.1, i
CCC(=O)N1CC2(C1)CN(S(C)(=O)=O)[C@H](CO)c1c2c2ccc(OC)cc2n1C
→ 4, 15, -4.2, ·, ·, ·, ·, 1.1, i
Cn1nnc(NC(=S)NC(=O)c2ccccc2)n1
→ 7, 6, 0.3, ·, 5%, 0.67, -4.2, -5.6, i

# Among those listed so far, three contain a halogen:
# Results follow in this order: rRNA inh HTS, rRNA inh HTS OD600, rRNA inh HTS RFP, ALR inh, Vif A3G, E coli growth, HNF4A DNA FP, MLL AF4-AF9 inh, FGF22 binding
CC(=O)c1ccc2noc(-c3cccc(F)c3)c2c1
→ 1, 7, -0.5, ·, 3%, 0.64, 0.5, 2.2, i
C[C@H](CO)N1C[C@H](C)[C@@H](CN(C)Cc2ccc(Cl)c(Cl)c2)Oc2ccc(NS(=O)(=O)c3ccccc3)cc2C1=O
→ -4, -28, 12, ·, ·, ·, ·, 1.7, i
COc1ccc(C(=O)C2CCCN(C(=O)c3cc4nc(C)cc(C)n4n3)C2)cc1F (stereo not drawn)
→ 3, -2, -0.1, 0, 9%, 0.72, 1.1, -1.4, ·

# Returning to the listing, repeating the 6 entries before the break.
# Results follow in this order: rRNA inh HTS, rRNA inh HTS OD600, rRNA inh HTS RFP, ALR inh, Vif A3G, E coli growth, HNF4A DNA FP, MLL AF4-AF9 inh, FGF22 binding
COc1ccc(C(=O)C2CCCN(C(=O)c3cc4nc(C)cc(C)n4n3)C2)cc1F (stereo not drawn)
→ 3, -2, -0.1, 0, 9%, 0.72, 1.1, -1.4, ·
Cc1cccc(NC(=O)CSCC(=O)Nc2ccc(N3CCOCC3)cc2N2CCOCC2)c1
→ 7, 3, -7.6, ·, ·, 0.65, 3.4, 3.8, i
C[C@@H]1CN([C@H](C)CO)C(=O)c2cc(NC(=O)CCCN(C)C)ccc2O[C@@H](C)CCCCO[C@@H]1CN(C)Cc1ccc2c(c1)OCO2
→ 0, -1, -1.4, ·, ·, ·, ·, 5.3, i
Cc1cc(O)ccc1Nc1cc(-c2cccc(N)c2)ncn1
→ 8, 4, -1.2, ·, ·, ·, 1.3, 2.1, i
CCC(=O)N1CC2(C1)CN(S(C)(=O)=O)[C@H](CO)c1c2c2ccc(OC)cc2n1C
→ 4, 15, -4.2, ·, ·, ·, ·, 1.1, i
Cn1nnc(NC(=S)NC(=O)c2ccccc2)n1
→ 7, 6, 0.3, ·, 5%, 0.67, -4.2, -5.6, i
COc1ccc(CNC(=O)Cc2ccc(OC)c(S(=O)(=O)N3CCOCC3)c2)cc1
→ ·, ·, ·, -1, -7%, 0.71, 2.2, ·, ·
CC1CC(=O)C2=C(C1)Nc1ccccc1N=C2 (stereo not drawn)
→ ·, ·, ·, 0, 20%, 0.71, 0.8, ·, ·
COc1ccc(N(C)S(=O)(=O)c2cccc(C(=O)Nc3cc(OC)ccc3OC)c2)cc1
→ -7, -6, 1.0, -2, ?, 0.65, 2.1, -3.8, i
CCOC(=O)C1CCCCN1C(=O)/C(=C/c1ccc(OC)cc1)c1ccc(OC)c(OC)c1 (stereo not drawn)
→ 2, 11, -5.9, -11, ·, ·, 0.0, 8.7, i
COc1ccccc1NS(=O)(=O)c1ccc(C)c(NC(=O)c2c(C)noc2C)c1
→ 4, 10, -1.2, -6, -6%, 0.69, 0.6, 1.3, i
CCc1ccc(Nc2cc(C)nc3nc(C)nn23)cc1
→ -5, -2, -0.9, -6, ·, 0.69, -0.6, 0.5, i
O=[N+]([O-])c1cccc(C=NN2CCCCCC2)c1
→ -7, -18, -14, ·, -7%, 0.67, -0.3, ?, i
C[C@H](CO)N1C[C@H](C)[C@H](CN(C)Cc2ccc(Cl)c(Cl)c2)Oc2ccc(NC(=O)Cc3cn(C)c4ccccc34)cc2CC1=O
→ 2, 7, -0.1, ·, ·, ·, ·, 0.5, i
CCC(C(=O)OCC(=O)Nc1ccc(SC(F)F)cc1)c1ccccc1 (stereo not drawn)
→ -56, -78, -19, ·, 83µM*, 0.68, 1.4, -4.3, i
O=C(COc1ccccc1[N+](=O)[O-])N1CCC(Cc2ccccc2)CC1
→ -37, -49, 0.1, 3, -7%, 0.67, -1.7, 1.9, i
Cc1ccc(CS(=O)Cc2ccc(C(=O)NC3CCCCC3)o2)cc1 (stereo not drawn)
→ 0, -7, -5.1, 2, ·, 0.63, 2.5, -3.7, i
CCOc1ccc2nc(NC(=O)C3CCN(S(=O)(=O)c4cnc[nH]4)CC3)sc2c1
→ -15, -16, -2.4, 4, -2%, 0.76, 0.2, -0.1, i
CC(C)NC(=O)Nc1ccc2c(c1)C(=O)N([C@H](C)CO)C[C@H](C)[C@@H](CN(C)C(=O)Nc1cccc3ccccc13)O2
→ -1, -18, -0.1, ·, ·, ·, ·, -3.7, i
CCOC(=O)N(C)C[C@H]1OCc2cn(nn2)CCCC(=O)N([C@H](C)CO)C[C@@H]1C
→ 10&2, 5&10, -2.4&0.9, ·, 10%, ·, -4.5, -2.3&0.8, i
COc1ccc(NC(=O)c2cc(-c3cc(F)ccc3OC(C)C)n[nH]2)c(OC)c1
→ -2, -17, 0.8, ·, ·, ·, -0.8, -1.8, i
O=C(COc1ncnc2ccc(Br)cc12)Nc1ccc(N2CCOCC2)cc1
→ ·, ·, ·, ·, 11%, 0.73, -1.6, ·, ·
O=C(NCCc1c[nH]c2ccccc12)/C(=C\c1cccnc1)NC(=O)c1ccccc1Br
→ -10, -5, -0.6, 4, ?, 0.61, 1.9, 1.8, i
O=C(CSCc1ccco1)NC1CCCC1
→ 18, 5, 5.8, 99*, 12%, ·, 3.2, -1.6, i
O=C(Cn1nc2n(c1=O)-c1ccccc1SC2)N/N=C/c1ccncc1
→ 6, 2, -0.6, ·, -14%, ·, 0.9, ·, i
CCOc1ccc(-c2nc(CSCC(=O)NC3CC3)c(C)o2)cc1
→ ·, ·, ·, 99*, ·, 0.7, -0.9, ·, ·
COc1ccc(/C=C(/NC(=O)c2ccccc2Cl)C(=O)O)cc1
→ 1, 1, 0.1, -1, ?, 0.68, 3.8, -3.3, i
C[C@H]1CN([C@@H](C)CO)C(=O)c2cc(NC(=O)NC3CCCCC3)ccc2O[C@H]1CN(C)CC1CCCCC1
→ 2, -6, -0.4, ·, ·, ·, ·, -0.7, i
CCOC(=O)N1CCN(C(=O)c2ccc(CS(=O)(=O)c3c(Cl)cccc3Cl)o2)CC1
→ 1, 15, -5.0, -71, 6%, ·, 3.8, -8.7, i
COc1cc(C2C3C(C)N(C)C(=O)N(C)C3N(C)C(=O)N2C)ccc1O (stereo not drawn)
→ ·, ·, ·, 18, 32%, 0.66, -0.2, ·, ·
Nc1nc(-c2ccccc2)ns1
→ 9, 9, 1.3, ·, -7%, ·, -0.7, -4.0, i
Cn1c(SCC(=O)N2CCCC2)nc2cccnc21
→ 17, 8, 1.5, -9, ?, 0.7, -0.5, -2.6, ·
CCOc1cccc(N(C(=O)CNC(=O)c2ccco2)C(C(=O)NCC2CCCO2)c2ccccc2)c1 (stereo not drawn)
→ 0, -4, -1.9, -8, ·, 0.7, -1.0, 0.2, i
CC(Oc1ccc(C(=O)c2ccccc2)cc1)C(=O)N1CCOCC1 (stereo not drawn)
→ 6, -1, 0.9, 0, -5%, 0.71, -2.9, -0.2, i
Cc1cc(NC(=O)CSc2nnc(-c3c[nH]c4ccccc34)n2-c2ccc(F)cc2)no1
→ 10, 18, -0.2, 1, -4%, 0.76, -1.4, 2.5, i
O=C(Nc1nc2ccccc2n1CCN1CCOCC1)c1cn(-c2ccccc2)nc1-c1ccccc1
→ ·, ·, ·, -8, 2%, 0.77, 2.2, ·, ·
CN1C(=O)c2cc(NC(=O)c3cccs3)ccc2OC[C@@H]2O[C@@H](CC(=O)N3CCOCC3)CC[C@H]21
→ 1, 2, -4.0, ·, ·, ·, ·, -0.4, i
Cn1c(=O)c(/C(N)=N/OC(=O)c2ccccc2)cn(-c2ccccc2)c1=O
→ 3, -2, -1.4, 1, 0%, 0.66, -0.3, ·, i
O=C(CSc1ccc(-c2ccco2)nn1)NC1CCCC1
→ 11, 7, 6.5, ·, -5%, 0.69, -4.0, -0.7, i
CC(=O)CCC(=O)c1ccc2ccccc2c1
→ 11, 7, -2.2, -2, -9%, 0.67, 0.4, 0.5, i
CC(C)NC(=O)N1CC(=O)N2[C@H](C1)[C@H](c1ccc(/C=C/c3ccccc3)cc1)[C@@H]2CO
→ 7, 22, -1.6, ·, ·, ·, ·, -1.5, i
CC(=O)Nc1cccc(-c2cnc(NC(C)=O)cn2)c1
→ 2, 17, -2.5, ·, ·, ·, -3.3, -2.5, i
CN(c1ccccc1)c1ncnc2c1ncn2C
→ 8, 5, 1.7, ·, -5%, 0.73, -0.1, -1.6, i
O=C(Cn1cncn1)NCCCc1ccccc1
→ 15, 1, 1.5, 1, 1%, 0.71, -4.5, 0.1, i
Cc1ccc(NC(=O)C2CCN(S(=O)(=O)c3ccc4c(c3)oc(=O)n4C)CC2)cc1
→ 5, 16, 4.6, 1, 4%, 0.7, 1.1, -0.2, i
N#Cc1ccccc1Sc1ccccc1C(=O)Nc1ccccc1
→ ·, ·, ·, 35, 1%, 0.75, 0.6, ·, ·

# An excerpt; the hit share may differ from the screen's.
